Screening results (PubChem)
HIV TAR-Tat: TAR RNA-Tat peptide displacers, HIV-1, primary screen, biochemical, FRET, FAM/TAMRA-labeled Tat | actives 0.6% (n = 100,000) | HIV-1 TAR RNA, Tat peptide displacement FRET; hits give high values | z-score (concentration not given with the values);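 note: score is relative to mean and SD of negative controls; some compounds called inactive have numbers as strong as hits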
CDC25B CDK2 inh: primary biochemical HTRF screen for blockers of M-phase inducer phosphatase 2 binding to CDK2/cyclin A. P30305+P24941. HTRF CDC25B-CDK2/CyclinA binding, anti-His/anti-Flag; hits give high values. z-score (concentration not given with the values). actives 0.72% (n = 94,000). AID 1259370, 2018;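 note: score is relative to mean and SD of negative controls; strong numbers were not always called active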
* hit, by the source's call; . = no result given.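 Rule for the calls: active = z-score from 3 up in half or more of its runs; inactive = the rest.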

SMILES,HIV TAR-Tat,CDC25B CDK2 inh
CCC1=Nc2ccccc2-c2nnc(SC)nc2O1,-0.11,-1.6
Cc1nc(-n2cccc2)sc1C(=O)NCCN(C)C,3.6,-1.1
CCCS(=O)(=O)c1ncc(Cl)c(C(=O)Nc2sc3c(c2C#N)CCCC3)n1,2.1,-2.1
O=C(NC1CCCC1)c1cc(-c2ccccc2)nc2ccccc12,.,-1.1
Cc1ccc(C)c2[nH]c(=O)c(CCNC(=O)c3ccc(S(=O)(=O)N4CCCC4)cc3)cc12,.,-2.2
Cc1csc(NC(=O)Cn2c(=O)oc3cc(S(=O)(=O)N4CCCC4)ccc32)n1,1.9,-2.1
COCC(=O)n1c(=O)oc2ccccc21,-0.68,.
CCOc1ccc(-c2c[n+]3c(n2Cc2ccccc2)SCCC3)cc1,0.34,1.2
O=c1ccc(-c2ccc(S(=O)(=O)Nc3ccc(-c4ccno4)cc3)o2)n[nH]1,-0.28,.
CN1CCN(c2nc3c(c(=O)[nH]c(=O)n3C)n2CC(O)COc2ccccc2)CC1 (configuration not stated),.,-1
O=C1Cc2cc(S(=O)(=O)N3CCN(C(c4ccccc4)c4ccccc4)CC3)cc3c2N1CCC3,2.9,.
Cc1cc(C)n2nc(NCc3ccc(Br)cc3)nc2n1,0.63,-1
O=C(Cn1ncc2c([nH]c3ccccc32)c1=O)N1CCN(c2cccc(Cl)c2)CC1,-0.28,.
Cc1ccc(-c2onc(C)c2C)cc1S(=O)(=O)NCc1cccs1,1.5,.
Cc1ccc2oc(SCC(=O)Nc3ccc(Br)cc3C)nc2n1,0.92,.
CCCCn1cc(S(=O)(=O)c2ccc(Cl)cc2)c(=O)c2ccccc21,3.2,-1.5
Cc1cc(=O)n2[nH]c(CNc3ccccc3F)nc2n1,0.45,-1.3
O=C(Nc1ccc2nc3n(c(=O)c2c1)CCCC3)NC1CCCCC1,1.7,.
N#Cc1c(NC(=O)COCc2cc(-c3ccc(F)cc3)on2)sc2c1CCCC2,1.7,.
c1cnc(-c2nc(-c3ccc4c(c3)nnn4C3CCCC3)no2)cn1,0.88,.
O=C(Nc1c(C(=O)Nc2ccccc2)oc2ccccc12)c1cc(=O)c2ccccc2o1,1.4,-2.1
O=C(c1ccc(F)cc1)c1cn(Cc2ccccc2)c2ccc(F)cc2c1=O,1.1,2.1
FC(F)(F)c1nc2ccncc2n1Cc1ccccc1,0.7,.
O=C(NCCC1=CCCCC1)C1=NS(=O)(=O)c2ccccc2N1,-0.4,.
CCC(Sc1nnc(-c2c[nH]c3ccccc23)n1CCOC)C(=O)OC (configuration not stated),.,-0.75
CCCCn1cc(S(=O)(=O)c2ccccc2)c(=O)c2cc(F)c(N3CCCC3)cc21,-0.31,.
CC(=O)C1=C(C)O[B-](c2ccccc2)(c2ccccc2)[NH+]=C1C(F)(F)F,.,-0.64
CC(=O)N1N=C(c2nc3nc(C)cc(C)n3n2)OC1c1ccc(C)cc1 (configuration not stated),2.5,.
O=C(c1cc(-c2ccccc2)n[nH]c1=O)N1CCc2ccccc2C1,0.07,.
Cc1[nH]nc(-c2ccc(S(=O)(=O)N3CCc4ccccc43)s2)c1C,0.47,.
CC1C(=O)Nc2ccc(S(=O)(=O)N3CCOCC3)cc2NC1=O (configuration not stated),2.3,.
O=C(O)[C@H]1OC(O)[C@H](O)[C@@H](O)[C@@H]1O (some centres not stated),.,-1.4
CN(C)c1c(F)cc(C(=O)NC(=O)Nc2nnc(C(F)(F)F)s2)cc1F,.,-0.63
Cc1ccc(C2=NC(c3ccsc3)NC(c3ccccc3O)C2)cc1 (configuration not stated),1.2,0.67
COc1ccc(C(=O)CSC2=NCCCCCC2)cc1,.,0.09
COc1ccc(NC(=O)Nc2nnc(C)s2)cc1,-0.11,0.06
CC(=O)Nc1c2n(c3ccccc13)CC(C)(C(=O)NC1CCCCC1)N(C1CCC(C)CC1)C2=O (configuration not stated),1.4,.
Cc1nc2nc(NC(=O)C(C)(C)C)[nH]n2c(=O)c1Cl,-1.1,-2.6
CCCN1C(=O)C2(/C(=C(/O)c3ccc(OCC)cc3)C(=O)C(=O)N2CCOC)c2ccccc21 (configuration not stated),-0.77,-0.31
CC(C)CC1=NN(C(=O)C(=O)OC(C)(C)C)C(O)(C(F)(F)F)C1 (configuration not stated),.,1.3
O=C(CN1C(=O)COc2ccc(S(=O)(=O)N3CCCC3)cc21)N1CCCCC1,.,-1.5
C=CCN(C(=O)C(C)Sc1nc2ncccc2o1)c1ccccc1 (configuration not stated),-1.2,.
COc1cccc(Nc2cc(C)c3ccc(O)cc3n2)c1,.,-1.6
CCC(CO)Nc1ncnc2c1cnn2-c1ccc(C)cc1 (configuration not stated),1.4,.
Cn1ncc(C(=O)O)c1NNC(=O)CC(C)(C)CC(=O)O,.,-1.4
CCOc1ccccc1C1C(C(=O)OC(C)C)=C(C)NC2=C1C(=O)CCC2 (configuration not stated),-0.27,-1.1
Cc1ccc(C)c(/C=N/n2c(C)nnc2-n2nc(C)cc2C)c1,.,-2.1
CCCN(CCC)C(=O)c1nn(C)c2c1CSc1ccccc1-2,2.7,-0.88
O=C1c2cccnc2C(=O)N1CCc1ccc(S(=O)(=O)NCc2cccnc2)cc1,1.1,.
O=C(O)CSCC(=O)Nc1ccccc1-c1ccccc1,.,-1.1
Cc1ccc2nc3c(cc2c1)CCN3C(=O)c1cccs1,-0.03,-1.7
Cc1nc(-c2nnc(SCc3nc(-c4ccc(C5SCCS5)cc4)no3)n2C)cs1,.,-1.3
Cc1ccc(C(=O)CC2(O)C(=O)N(C)c3ccccc32)c(C)c1 (configuration not stated),-0.81,-0.35
COc1ccc(Cc2nn3c(C(F)(F)F)nnc3s2)cc1OC,0.11,-0.87
CCOc1ccc(-c2cc(N)n(S(=O)(=O)c3ccc(C)cc3)n2)cc1,0.34,-1.8
O=C(Cn1c(=O)n(-c2ccc(F)cc2F)c(=O)c2sccc21)NCc1ccco1,.,0.07
CCn1c(SCc2nc(-c3cc(OC)ccc3OC)no2)nnc1-c1ccccc1,-1.3,-2.9
O=C1CC(c2cccs2)Cc2nc(NCCN3CCOCC3)ncc21 (configuration not stated),.,-1.7
CCOc1ccc(-c2ccc(NS(=O)(=O)c3cc(C)ccc3OC)cc2)nn1,-0.21,.
CCn1c(SCc2nc(-c3ccc(OC)cc3)no2)nnc1-c1ccncc1,0.2,-2.9

Molecules above with an aryl thioether with sulfur outside any ring:
SMILES,HIV TAR-Tat,CDC25B CDK2 inh
CCC1=Nc2ccccc2-c2nnc(SC)nc2O1,-0.11,-1.6
Cc1ccc2oc(SCC(=O)Nc3ccc(Br)cc3C)nc2n1,0.92,.
CCC(Sc1nnc(-c2c[nH]c3ccccc23)n1CCOC)C(=O)OC (configuration not stated),.,-0.75
C=CCN(C(=O)C(C)Sc1nc2ncccc2o1)c1ccccc1 (configuration not stated),-1.2,.
Cc1nc(-c2nnc(SCc3nc(-c4ccc(C5SCCS5)cc4)no3)n2C)cs1,.,-1.3
CCn1c(SCc2nc(-c3cc(OC)ccc3OC)no2)nnc1-c1ccccc1,-1.3,-2.9
CCn1c(SCc2nc(-c3ccc(OC)cc3)no2)nnc1-c1ccncc1,0.2,-2.9

The list continues:
SMILES,HIV TAR-Tat,CDC25B CDK2 inh
CCc1cc(=O)n2[nH]c(SC)c(-c3nc(-c4ccc5c(c4)OCO5)no3)c2n1,-1.2,-1.9
CSc1ccc(CCNC(=O)Nc2cn(C)c(=O)c3ccccc23)cc1,-1.5,.
O=C(NC(=S)Nc1ccc2oc(-c3ccc4ccccc4c3)nc2c1)c1ccc(F)cc1,.,-2.3
Cn1c(=O)c(C(=O)NCC2CCCO2)c(O)c2ccccc21 (configuration not stated),1.7,.
Cc1cc(=O)n2c(n1)NC(Nc1cccc(C)c1C)=NC2c1ccccc1 (configuration not stated),-1.2,0.45
CC(C)Cc1nc2ccccc2n1CC(=O)O,1.5,0.16
NC(=O)COc1ccc(C2c3c(oc4ccccc4c3=O)C(=O)N2c2nncs2)cc1 (configuration not stated),0.75,-0.77
O=C(c1ccc(Cl)cc1)n1c(=O)oc2cc(Cl)ccc21,1.5,-1.4
Cc1cc(=O)n2[nH]c(COc3ccccc3)nc2n1,3,-1.5
O=C(Nc1ccc2c(c1)OCCO2)NC(c1ccccc1)c1nnc(-c2ccccc2)o1 (configuration not stated),3.1,.
CCOC(=O)C1=C(C)NC(=O)CC1c1ccc(C)cc1 (configuration not stated),.,-1.8
Cc1ccc(NS(=O)(=O)c2c(C)nc3sc4ccccc4n3c2=O)cc1Cl,-0.15,-1.1
COc1cccc(-c2noc(C(C)Oc3ccccc3)n2)c1 (configuration not stated),-0.03,-1.6
Cc1ccc2occ(C3Nc4cc(C)c(C)cc4NC4=C3C(=O)CC(C)(C)C4)c(=O)c2c1 (configuration not stated),0.26,-0.47
CCCCN1C(=O)C(O)(c2c[nH]c3ccccc23)c2cc(Br)ccc21 (configuration not stated),0.76,1.3
COc1ccccc1C1=NS(=O)(=O)N(C)C(C(=O)N2CCCC2)=C1,-0.77,-1.8
COc1ccc(-c2cn3ccccc3n2)cc1Br,2.2,-0.76
CCCc1cc(=O)n2nc(N(C)CC(=O)NCC3CCCN3CC)sc2n1 (configuration not stated),1.2,-0.82
Cc1nc(CN2C(=O)COc3ccc(S(=O)(=O)N4CCc5ccccc5C4)cc32)no1,0.66,.
COc1ccc(Br)c(-c2nnc(-c3ccc4c(c3)OCO4)o2)c1,-1.4,-5.3
CCOC(=O)N1CCC2(CC1)OC(=O)C(C)=C2C(=O)NCc1ccco1,1.5,.
CCSc1nncc(-c2ccccc2)n1,0.46,-0.98
Cc1sc2ncnc(NC3CC(C)(C)NC(C)(C)C3)c2c1C,0,-1.8
CCn1c(SCc2ccc(F)cc2)nnc1-c1ccc2c(c1)OCCCO2,1.8,.
Cc1cccc(N(C)c2c(-c3ccccc3)c(=O)c2=O)c1,2.1,.
O=C(CN1C(=O)c2cccnc2Oc2ccc(Cl)cc21)N1CCOCC1,0.85,.
CCC12CCCN3CCc4c(n(c5ccccc45)C(=O)C1)C32 (configuration not stated),.,-1.3
CC(=O)O[C@H]1CCC2(C)C3=C(CCC2C1(C)C)[C@@]1(C)CC[C@@H](C(C)CCC=C(C)C)[C@]1(C)CC3 (some centres not stated),2.7,.
Cc1ccc(NCN2C(=O)c3ccc([N+](=O)[O-])cc3C2=O)cc1,.,0.4
O=C(Nc1ccc(F)cc1)c1cnn(-c2cccc(F)c2)c1-n1cccc1,-0.2,.

Continued; the last three above are carried over.
SMILES,HIV TAR-Tat,CDC25B CDK2 inh
CC(=O)O[C@H]1CCC2(C)C3=C(CCC2C1(C)C)[C@@]1(C)CC[C@@H](C(C)CCC=C(C)C)[C@]1(C)CC3 (some centres not stated),2.7,.
Cc1ccc(NCN2C(=O)c3ccc([N+](=O)[O-])cc3C2=O)cc1,.,0.4
O=C(Nc1ccc(F)cc1)c1cnn(-c2cccc(F)c2)c1-n1cccc1,-0.2,.
COC(=O)c1c(NC(=O)c2cc3ccccc3c(=O)o2)sc2c1CCC2,0.7,-0.23
O=C(C1=Cc2ccccc2OC1)N1CCN(c2ccc(F)cc2)CC1,0.63,.
C/C(=C/c1nsc(Nc2ccc(Cl)cc2)n1)NC1CC(C)(C)NC(C)(C)C1,.,-0.32
O=C1c2ccccc2C(Nc2ccc(Cl)cc2)N1c1ccc(Cl)cn1 (configuration not stated),0.1,-2.2
O=S(=O)(CCc1ccccc1)NCCc1csc(-c2ccc(F)cc2)n1,0.85,.
CCn1c(=O)n(-c2ccc(F)cc2)c(=O)c2c3c(sc21)CN(C(C)=O)CC3,-0.15,-1.3
CC(Oc1ccc(Cl)cc1Cl)C(=O)NC1=NCCS1 (configuration not stated),.,-2.5
CCCOc1ccccc1C1NC(=O)NC(C)=C1C(=O)OCCSC (configuration not stated),.,-1
Cn1c(SCC(=O)Nc2nc3ccccc3s2)nnc1-c1cc2ccccc2o1,0.51,.
N#Cc1cccnc1NNC(=O)c1nccnc1C(=O)O,.,-0.75
COc1ccc(-c2cc(C(F)(F)F)n3ncnc3n2)cc1,1.7,-0.8
CCOC(=O)C1CCC(CNC(=O)Nc2cc3c(cc2N2CCCCC2)n(C)c(=O)n3C)CC1 (configuration not stated),0.23,-1.5
Cc1cccc(N(C)S(=O)(=O)c2ccc(-c3n[nH]c(C)c3C)s2)c1,-1,.
Cc1ccc(-c2c(Nc3ccc(F)c(Cl)c3)c(=O)c2=O)cc1C,2.1,.
CCCSc1ncc(Cl)c(C(=O)Nc2sc3c(c2C(=O)NCC2CCCO2)CCCC3)n1 (configuration not stated),-0.15,-0.7
CCCCCC(O)CCCC(=O)O (configuration not stated),.,-0.67
COC(=O)c1sccc1Oc1nccnc1C#N,.,-1
Cc1nc2c(-c3ccccc3)c(C)[nH]n2c(=O)c1Cc1ccc(Cl)cc1,1.1,-1.6
Cc1cc(C)n(-c2cc(NCc3ccc(C)o3)ncn2)n1,-0.31,.
O=C(COCc1cc(-c2ccco2)on1)N1CCCc2ccccc21,0.4,.
CCCCNC(=O)CCc1c(C)nc2c3c(C)cc(C)nc3nn2c1C,2.6,-1.9
CN(C)c1ccc(C2CC(=O)C3=C(C2)Nc2ccccc2NC3c2ccccc2)cc1 (configuration not stated),0.78,-3.3
CC1CCN(c2c(C(=O)c3ccccc3)cnc3cc4c(cc23)OCCO4)CC1,1.5,-1
